Screening data: PubChem BioAssay, Broad Institute
YB-1 expression = YB-1 expression inhibition; 30,000 tested, 0.37% active; delta delta Cp (YB-1 minus CDIP) (no concentration beside the values); U2OS, qRT-PCR YB-1 vs CDIP delta delta Cp, 16 h; active compounds read high; zero = DMSO, each unit about twofold;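 active = delta delta Cp rounded down to an integer at or above 3, about 3 SD of DMSO wells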;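 note: higher means less YB-1 transcript or more CDIP transcript relative to DMSO; stock transfer was 100 nL into about 100 µL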
Shh pathway inh = blocks Sonic Hedgehog signaling | Shh-LIGHT2 Gli-luciferase reporter, 30 h | inhibition, % (no concentration beside the values) | 22,000 tested, 2.1% active;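 active = replicate mean of 65% or more; inconclusive = mean lower but half the replicates past it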;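 note: pathway switched on by Shh-conditioned medium diluted 1 in 25 in low serum; 100 nL library stock added to about 40 µL; 0% = median of neutral wells and 100% = positive control level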
MITF inh = MITF inhibition. TRPM1 promoter luciferase, luminescence, 24 h. 37,000 tested, 0.28% active. AID 2240. inhibition, % (no concentration beside the values);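 active = most replicates at 85% or more, or half of them and the mean; inconclusive = half reach 85% but not the mean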;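 note: human melanocyte line stably carrying TRPM1 promoter luciferase reporter; 0% = vehicle wells and 100% = a positive control; the first replicate is given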
PD-1 reverse act = activators reversing PD-1 mediated T-cell inhibition; primary human CD4 T cells, PD-L1 beads, CellTiter-Glo 96 h; 29,000 tested, under 10 active; activation, % (test concentration not listed); AID 2316;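 active = replicate mean of 50% or more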;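 note: 0% = median vehicle wells and 100% = positive control; 100 nL library stock added to about 50 µL; numbers are from one replicate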
Numbers without * were called inactive; ? = inconclusive; nt = no result given.

SMILES | YB-1 expression | Shh pathway inh | MITF inh | PD-1 reverse act
CCC(Sc1nnc(C)s1)C(=O)Nc1ccc(Cl)cc1 (stereo unspecified) | nt | nt | -2.7 | 0.3
COc1ccc(CN(C)C[C@H]2Oc3c(NC(=O)Nc4ccc(F)cc4)cccc3C(=O)N([C@@H](C)CO)C[C@H]2C)cc1 | -0.0462 | -8.0 | -21.5 | 2.2
CC(C)NC(=O)N(C)C[C@H]1Oc2ccc(NC(=O)CCCN(C)C)cc2C(=O)N([C@@H](C)CO)C[C@H]1C | -0.186 | -6.2 | -1.6 | 0.8
CNC[C@@H]1Oc2ccc(NC(=O)NC3CCCCC3)cc2C(=O)N([C@H](C)CO)C[C@H]1C | -0.0264 | nt | -0.1 | 0.2
Cc1cccc(N(CC(=O)Nc2ccc(I)cc2C)S(C)(=O)=O)c1 | nt | nt | -7.6 | -0.4
Cc1ccc(S(=O)(=O)Nc2ccc3c(c2)CC(=O)N([C@@H](C)CO)C[C@@H](C)[C@@H](CN(C)C(=O)NC(C)C)O3)cc1 | 0.0819 | -21.7 | -4.1 | 0.1
Cc1noc(C)c1NC(=O)Nc1cccc2c1O[C@@H](CN(C)C(=O)Nc1c(C)noc1C)[C@@H](C)CN([C@@H](C)CO)C2=O | -0.913 | -11.2 | -8.2 | 2.9
C[C@H]1CN([C@@H](C)CO)C(=O)c2cc(NC(=O)C3CCCCC3)ccc2O[C@@H]1CN(C)Cc1ccc(-c2ccccc2)cc1 | -0.237 | 3.3 | 13.3 | -3.7
COc1ccc(OC)c(NC(=O)CN2CCC(C(N)=O)(N3CCCCC3)CC2)c1 | nt | nt | -11.2 | -0.1
COc1cc([N+](=O)[O-])ccc1NC(=O)CSc1nc(C)cc(-c2ccc(Cl)cc2)n1 | nt | nt | -0.2 | -1.0
Cc1noc(C)c1NC(=O)Nc1ccc2c(c1)CC(=O)N([C@H](C)CO)C[C@@H](C)[C@H](CN(C)Cc1ccc(Cl)c(Cl)c1)O2 | -0.205 | -14.2 | -0.3 | 1.6
C[C@H]1CN([C@@H](C)CO)C(=O)c2cccc(NS(=O)(=O)c3cn(C)cn3)c2O[C@@H]1CN(C)Cc1ccc(-c2ccccc2)cc1 | 0.283 | 7.0 | -7.1 | 0.0
C/C(=C\Cc1c(O)cc2oc(C)cc(=O)c2c1O)CO[C@@H]1O[C@H](CO)[C@@H](O)[C@H](O)[C@H]1O | -0.906 | -21.4 | -14.2 | -2.0
O=C(NCC12CC3CC(CC(C3)C1)C2)c1ccccc1 | -0.225 | nt | -15.9 | -1.2
COc1cccc(OCC(=O)Nc2cccc(Oc3ccc4c(c3)C(=O)NC4=O)c2)c1 | nt | nt | 29.0 | 2.6
CC(C)NC(=O)Nc1ccc2c(c1)C(=O)N([C@H](C)CO)C[C@H](C)[C@@H](CN(C)C)O2 | 0.308 | nt | 3.5 | 1.9
C[C@H]1CN([C@@H](C)CO)C(=O)c2cc(NS(=O)(=O)c3cccs3)ccc2O[C@H]1CN(C)C(=O)Nc1ccc(F)cc1 | -0.0161 | -18.3 | -8.7 | 0.4
Cc1ccc(S(=O)(=O)Nc2ccc3c(c2)CC(=O)N([C@H](C)CO)C[C@@H](C)[C@H](CN(C)S(=O)(=O)c2ccccc2)O3)cc1 | 0.00329 | 11.5 | 1.2 | 1.1
C[C@@H]1CN([C@@H](C)CO)C(=O)c2cccc(NC(=O)NC3CCCCC3)c2O[C@@H]1CN(C)S(=O)(=O)c1cn(C)cn1 | -0.163 | 11.6 | -4.4 | 0.9
Cc1cc(O)c2c(c1)C(=O)c1cc(OC3OC(COC(=O)CC(=O)O)C(O)C(O)C3O)cc(O)c1C2=O (stereo unspecified) | 1 | -11.2 | 9.2 | 2.6
Cc1ccc(S(=O)(=O)N(C)C[C@H]2Oc3c(NC(=O)c4ccc(-c5nccs5)cc4)cccc3C(=O)N([C@H](C)CO)C[C@@H]2C)cc1 | 0.349 | 9.3 | -7.9 | -1.0
O=S(=O)(Nc1ccccn1)c1cccc(S(=O)(=O)c2ccc(Br)cc2)c1 | nt | nt | -21.3 | 1.2
Cc1ccc(Cc2nn3c(C(=O)c4cccs4)nn(-c4ccc(Cl)cc4)c3nc2=O)cc1 | -0.0839 | 67.1* | 22.7 | 0.7
C[C@H]1CN([C@@H](C)CO)C(=O)c2cccc(NC(=O)CCCCCC(=O)Nc3ccccc3N)c2O[C@@H]1CN(C)S(=O)(=O)c1ccc(F)cc1 | 0.0554 | nt | 18.1 | -0.3
C[C@H]1CN([C@@H](C)CO)C(=O)c2cccc(NC(=O)Nc3ccc(F)cc3)c2O[C@@H]1CN(C)C | -0.356 | -45.4 | -11.4 | nt
C[C@H]1CN([C@@H](C)CO)C(=O)c2cccc(NC(=O)c3nc4ccccc4s3)c2O[C@H]1CN(C)Cc1ccc(C(F)(F)F)cc1 | 0.0871 | -4.3 | -7.7 | -2.9
C[C@@H]1CN([C@@H](C)CO)C(=O)Cc2cc(NC(=O)Cc3ccccc3)ccc2O[C@@H]1CN(C)S(=O)(=O)c1ccc(F)cc1 | -0.456 | -15.2 | 5.0 | nt
C[C@@H]1CN([C@@H](C)CO)C(=O)c2cccc(NC(=O)c3ccc(-c4nccs4)cc3)c2O[C@H]1CN(C)Cc1ccc(C(F)(F)F)cc1 | 0.042 | -3.2 | 69.4 | -3.6
COc1ccc(NC(=O)Nc2cccc3c2O[C@@H](CN(C)C(=O)Nc2ccc(OC)cc2)[C@H](C)CN([C@H](C)CO)C3=O)cc1 | -0.0136 | -1.9 | -1.0 | nt
Cc1n[nH]c(=S)n(/N=C/C=C/c2ccccc2)c1=O | 0.0939 | 16.2 | -21.3 | -28.7

Entries above with an aryl thioether with sulfur outside any ring (two):
SMILES | YB-1 expression | Shh pathway inh | MITF inh | PD-1 reverse act
CCC(Sc1nnc(C)s1)C(=O)Nc1ccc(Cl)cc1 (stereo unspecified) | nt | nt | -2.7 | 0.3
COc1cc([N+](=O)[O-])ccc1NC(=O)CSc1nc(C)cc(-c2ccc(Cl)cc2)n1 | nt | nt | -0.2 | -1.0

Continued:
SMILES | YB-1 expression | Shh pathway inh | MITF inh | PD-1 reverse act
NC(=O)COc1ccc(C=C2C(=O)c3ccccc3C2=O)cc1 | 0.00994 | 15.7 | 6.4 | -3.8
Cc1ccc(S(=O)(=O)N(C)C[C@H]2Oc3ccc(NC(=O)C4CCCCC4)cc3C(=O)N([C@@H](C)CO)C[C@@H]2C)cc1 | -0.289 | nt | 3.8 | nt
Cc1ccc(S(=O)(=O)N(C)C[C@@H]2Oc3ccc(NC(=O)Nc4ccc5c(c4)OCO5)cc3CC(=O)N([C@H](C)CO)C[C@H]2C)cc1 | 0.31 | -20.5 | 2.0 | -1.8
COc1ccc(CN(C)C[C@@H]2Oc3ccc(NC(=O)Cn4cnnn4)cc3C(=O)N([C@H](C)CO)C[C@@H]2C)cc1 | -0.0903 | -11.6 | -1.8 | 0.9
COc1ccc(CN(C)C[C@H]2Oc3ccc(NC(=O)Nc4ccc(F)cc4)cc3CC(=O)N([C@@H](C)CO)C[C@H]2C)cc1 | -0.117 | 27.0 | 4.9 | nt
CC(=O)c1ccc(NC(=O)CSc2nnc(-c3ccccc3)n2-c2ccccc2)cc1 | nt | nt | -76.5 | -0.7
C[C@@H]1CN([C@@H](C)CO)C(=O)c2cccc(NC(=O)c3ccc(-c4nccs4)cc3)c2O[C@@H]1CN(C)S(=O)(=O)c1ccc(Cl)cc1 | -0.156 | 30.7 | 23.8 | -2.1
Cc1cc(Oc2ccccc2)nc(SCC(=O)Nc2ccc(Cl)cc2Cl)n1 | nt | nt | 7.7 | -0.1
C/C(=C\C(=O)O)CCC1C(C)(O)CCC2C(C)(CO)CCCC12C (stereo unspecified) | -0.0505 | 0.2 | nt | nt
C[C@@H]1CN([C@H](C)CO)C(=O)c2cccc(NC(=O)Nc3cccc4ccccc34)c2O[C@H]1CN(C)S(=O)(=O)c1cccs1 | -0.0626 | ? | 3.5 | nt
COc1ccc(NC(=O)C2CC=CCC2C(=O)Nc2ccccc2Cl)cc1 (stereo unspecified) | nt | nt | 2.7 | 3.6
COc1cc(C(=O)Nc2ccc(S(=O)(=O)Nc3ccccn3)cc2)cc(OC)c1OC | nt | nt | 2.1 | 1.1
CC(=O)Nc1ccc(Br)c(C(F)(F)F)c1 | -0.82 | -16.3 | -37.7 | -1.2
COc1ccc(S(=O)(=O)Nc2ccc3c(c2)CC(=O)N([C@@H](C)CO)C[C@H](C)[C@@H](CN(C)C(=O)Nc2c(C)noc2C)O3)cc1 | 0.292 | -24.7 | -3.8 | 2.0
Cc1nnc(SCC(=O)Nc2cccc(C)c2C)s1 | nt | nt | -5.5 | -0.7
O=C(CSc1nc2ccccc2[nH]1)Nc1cccc2ccccc12 | nt | nt | 39.7 | -2.3
O=C(O)CCc1nn2c3ccccc3n(Cc3ccccc3)c2nc1=O | nt | nt | -6.8 | 1.1
Cc1ccc(S(=O)(=O)Nc2ccc3c(c2)C(=O)N([C@H](C)CO)C[C@H](C)[C@H](CN(C)C(=O)NC(C)C)OCCCC[C@@H](C)O3)cc1 | 0.124 | 64.0 | -9.7 | 0.8
COc1cc(OC)c(C2=NOC(C(=O)NCc3ccco3)C2)cc1Cl (stereo unspecified) | nt | nt | 15.3 | 1.2
COc1ccc(CN(C)C[C@H]2Oc3ccc(NC(=O)C4CCCCC4)cc3C(=O)N([C@@H](C)CO)C[C@@H]2C)cc1 | 0.0161 | 1.7 | 2.2 | 1.5
C[C@@H]1CN([C@H](C)CO)C(=O)c2cccc(NC(=O)C3CC3)c2O[C@H]1CN(C)C(=O)Nc1cccc2ccccc12 | 0.083 | 9.5 | -9.5 | 0.9
O=C(Nc1ccccc1C(=O)O)OCC1c2ccccc2-c2ccccc21 | -0.0446 | -46.5 | -25.4 | 5.9
CSCCC(N)C(=O)NC(CC(C)C)C(=O)NC(Cc1ccccc1)C(=O)O (stereo unspecified) | 0.0594 | 15.5 | -0.7 | nt
CC(C)NC(=O)Nc1ccc2c(c1)C(=O)N([C@H](C)CO)C[C@@H](C)[C@@H](CN(C)CC1CCCCC1)O2 | -0.0112 | nt | -11.9 | -2.4
O=C(CSc1ncnc2sc(-c3ccccc3)cc12)NC1CCCCC1 | nt | nt | 19.6 | -4.9
Cc1cc(C)c(S(=O)(=O)N(C)CC(=O)Nc2ccccc2F)c(C)c1 | nt | nt | -3.6 | 0.1
C[C@@H]1CN([C@H](C)CO)C(=O)c2cc(N(C)C)ccc2O[C@H]1CN(C)C(=O)Nc1ccc2c(c1)OCO2 | -0.102 | -69.5 | -1.6 | nt
C[C@@H]1CN([C@H](C)CO)C(=O)c2cc(NC(=O)Nc3ccc(C(F)(F)F)cc3)ccc2O[C@H]1CN(C)S(=O)(=O)c1ccc(F)cc1 | 0.299 | 37.1 | 19.3 | -0.5
Cc1cc(C(=O)Nc2ccccc2C(=O)O)ccc1NC(=O)COc1ccccc1Cl | nt | nt | 9.2 | 2.4
C[C@@H]1CN([C@H](C)CO)C(=O)c2cccc(NC(=O)C3CC3)c2O[C@H]1CN(C)S(=O)(=O)c1ccccc1 | 0.327 | -1.9 | 1.0 | 0.4
CCn1c(SCC(=O)N2c3ccccc3Sc3ccccc32)nnc1-c1cccc(Cl)c1 | nt | nt | 33.9 | 0.0
O=c1cc(-c2ccc(O)cc2)oc2cc(O)c(C3OC(CO)C(O)C(O)C3O)c(O)c12 (stereo unspecified) | -0.321 | -4.8 | -7.9 | 3.8
C[C@H](CO)N1C[C@H](C)[C@@H](CN(C)S(=O)(=O)c2ccc(F)cc2)Oc2c(NC(=O)c3ccncc3)cccc2C1=O | -0.165 | ? | 13.4 | 0.3
CCOC(=O)CCc1nc2ccc(O)cc2[nH]1 | nt | nt | -12.2 | 2.4
Cc1noc(C)c1S(=O)(=O)Nc1cccc2c1O[C@@H](CN(C)Cc1ccc(C(=O)Nc3ccccc3N)cc1)[C@@H](C)CN([C@H](C)CO)C2=O | -0.37 | nt | 11.3 | 0.5
Cc1ccc2nc(-c3cccc(Br)c3)cc(C(=O)NCc3cccnc3)c2c1 | nt | nt | 4.5 | -0.1
O=C(CN1C(=O)C2C3C=CC(C4CC34)C2C1=O)NCc1ccco1 (stereo unspecified) | nt | nt | -26.2 | 3.0
COC(=O)c1ccccc1NC(=O)CN(C)S(=O)(=O)c1cc(Cl)ccc1Cl | nt | nt | 3.4 | -1.4
CC1=Nc2ccc(C(F)(F)F)cc2C1(C)C | 0.06 | -10.3 | -18.8 | 0.7
CNC(=O)c1cccc2c1-c1ccccc1C2=O | 0.0159 | -3.5 | 17.0 | 0.1
CCn1c(SCC(=O)c2cc(OC)ccc2OC)nnc1-c1ccncc1 | nt | nt | -2.1 | -0.1

As a short view, some entries already given:
SMILES | YB-1 expression | Shh pathway inh | MITF inh | PD-1 reverse act
COC(=O)c1ccccc1NC(=O)CN(C)S(=O)(=O)c1cc(Cl)ccc1Cl | nt | nt | 3.4 | -1.4
CC1=Nc2ccc(C(F)(F)F)cc2C1(C)C | 0.06 | -10.3 | -18.8 | 0.7

This is a subset, so the mix of outcomes need not match the whole.
